Screens (PubChem BioAssay)
TRPML1 inh: qHTS for Inhibitors of the Human Mucolipin Transient Receptor Potential 1 (TRPML1). 390,000 compounds, 0.02% hits. TRPML1-inducible cells, Ca2+ dye fluorescence, FDSS; active compounds read low; inhibition of EC80 agonist-evoked calcium signal. Mucolipin-1 (Homo sapiens), Q9GZU1. activity change, negative = inhibition, % (test concentration not listed); in the data active means activity change below about -50%; inconclusive means about -30% to -50%; inactive means above about -30%;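 further: stimulus is agonist 54-4 at its EC80 concentration; on the % scale 0 is the no-effect control and ±100 the full control effect; compound concentration not given in the record; the text of the record puts the active cut at -80%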
Target sequence (Q9GZU1 whole entry, looked up): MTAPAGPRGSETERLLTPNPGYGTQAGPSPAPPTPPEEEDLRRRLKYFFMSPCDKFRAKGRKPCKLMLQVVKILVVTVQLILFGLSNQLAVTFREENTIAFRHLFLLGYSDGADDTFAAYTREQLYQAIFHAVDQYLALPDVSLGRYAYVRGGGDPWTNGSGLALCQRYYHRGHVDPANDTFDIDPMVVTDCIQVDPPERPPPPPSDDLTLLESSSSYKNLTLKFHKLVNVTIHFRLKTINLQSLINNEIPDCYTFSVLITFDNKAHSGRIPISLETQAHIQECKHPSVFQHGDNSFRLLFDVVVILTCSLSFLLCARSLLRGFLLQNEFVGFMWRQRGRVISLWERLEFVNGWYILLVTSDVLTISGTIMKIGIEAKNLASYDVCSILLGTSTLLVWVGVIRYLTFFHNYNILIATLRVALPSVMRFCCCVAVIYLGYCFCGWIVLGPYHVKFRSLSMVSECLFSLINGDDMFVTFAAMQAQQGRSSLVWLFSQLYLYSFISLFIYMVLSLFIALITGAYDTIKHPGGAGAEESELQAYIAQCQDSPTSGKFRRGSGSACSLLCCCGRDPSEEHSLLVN
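Calcium fluorescence in TRPML1-DL cells induced overnight with Tet: a 110 s read after compound pin addition, then a 110 s antagonist read after challenge with 54-4 at 4 uM final (EC80).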
Menin MLL FP FL: qHTS Assay for Inhibitors Targeting the Menin-MLL Interaction in MLL Related Leukemias: Competition With Fluorescein Labeled MLL-derived Peptide | FP activity change, % at 61.4 µM | 290,000 tested, under 10 active | AID 1766, 2009 | Fluorescence polarization, fluorescein-MLL peptide displacement from menin; inconclusive = falling polarisation curve, or a change in total fluorescence; inactive = total fluorescence flat and polarisation flat or rising; no compound was filed as active; the % refers to the polarisation; negative = inhibition;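 further: % of control where 0% means no effect; inhibitors lower the polarisation; unlabelled MLL peptide was the positive control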
TRPV1 potentiator: HTS Assay for Compounds that Act as Potentiators of the Vanilloid Receptor 1; 320,000 compounds, 0.02% hits; potentiation, % at 8.33 µM; Transient receptor potential cation channel subfamily V member 1 (Homo sapiens), Q8NER1; TRPV1-expressing cells, Fluo-8 calcium influx, capsaicin EC20 potentiation; host cell line not named in the record; control for the full effect not named in the record; AID 540277, 2011; active means potentiation above 80%; inconclusive means 30% to 80%; inactive means below 30%; further: 0% is about no effect
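Fluo-8 calcium influx in TRPV1-expressing cells, kinetic read (ex 480/em 520 nm). Compound added and read 3 min for agonist activity, followed by capsaicin at EC20 final and 2 min further read for enhancement.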
gsp antag: qHTS for Antagonists of gsp, the Etiologic Mutation Responsible for Fibrous Dysplasia/McCune-Albright Syndrome: qHTS. Potency, µM (doses to about 76.9 µM), for inactives: top-dose activity change, negative = inhibition, actives largely listed as inhibitors. gsp-mutant cells, cAMP HTRF, 30 min; control for the full effect not named in the record. AID 624288, 2012. 340,000 compounds, 0.4% hits; active = falling curve of any shape with a large fitted effect; inconclusive = falling curve, mostly with a smaller effect; inactive = flat or rising curve; cell line not stated here;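 further: intracellular cAMP measured with PDE inhibitor Ro 20-1724 present during compound exposure; potency means the concentration at half of the fitted maximal effect; on the % scale 0 is the no-effect control and ±100 the full control effect; nearly all actives have a fitted effect of over 65% in size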
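HTRF cAMP read-out (cAMP-d2 plus anti-cAMP antibody-K in lysis buffer, 30 min RT). Before lysis, cells are exposed to compounds with […] for 30 min at 37C in DPBS containing Ca/Mg, BSA and Tween 20.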
ClpP mod: qHTS Assay for Activators of ClpP; purified B. subtilis ClpP, FRET peptide cleavage, 20 min; 340,000 compounds, 1.9% hits; AID 651965, 2013; ATP-dependent Clp protease proteolytic subunit (Bacillus subtilis (strain 168)), P80244; Potency, µM (highest dose often 57.5 µM), for inactives: top-dose activity change, negative = active; active = well fitted falling curve with a large enough effect; inconclusive = small, poorly fitted or top-dose-only effect; inactive = no such curve, though single readings can be large or run the other way; further: potency means the concentration at half of the fitted maximal effect; the source files actives as falling curves though it sought activators and does not explain the sign; nearly all actives have a fitted effect of over 65% in size; many hits overshoot -100%
Target sequence (P80244 whole entry, looked up): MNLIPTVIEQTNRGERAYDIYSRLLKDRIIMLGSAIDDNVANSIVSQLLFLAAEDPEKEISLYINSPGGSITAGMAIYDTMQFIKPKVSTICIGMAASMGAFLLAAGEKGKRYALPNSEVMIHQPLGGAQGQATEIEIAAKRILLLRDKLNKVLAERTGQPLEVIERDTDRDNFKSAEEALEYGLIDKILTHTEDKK
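Purified B. subtilis ClpP, 10 microg/mL final in Tris/HCl pH8 with KCl, BSA, glycerol and Tween-20, cleaved an Abz/nitrotyrosine-quenched decapeptide. Fluorescence (ex 320, em 430) was read at 0 and 20 min at room temperature. Delta was normalized to 5.8 microM ADEP and DMSO/no-enzyme controls.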
Sfp inh: qHTS Assay for Inhibitors of Bacillus subtilis Sfp phosphopantetheinyl transferase (PPTase). 4'-phosphopantetheinyl transferase ffp (Bacillus subtilis), Q9F4F7. Biochemical Sfp PPTase activity, qHTS. Potency, µM, inactives show max response, negative = inhibition, usual class: inhibitors. 310,000 compounds, 3.5% hits. AID 1490, 2009; active means well fitted inhibition curve with a large enough effect; inconclusive means small, poorly fitted or top-dose-only effect, or another doubt; inactive means no such curve, though single readings can be large or run the other way;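 further: the enzyme is Sfp with the accession as filed and its product quenches rhodamine fluorescence; potency means the concentration at half of the fitted maximal effect; 0% = enzyme reaction without inhibitor and -100% = no enzyme wells; top concentration of the series not given in the record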
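With Hepes-Na pH 7.6 buffer containing 10 mM MgCl2, Sfp (15 nM) modified BHQ-2-YbbR (12.5 uM) using rhodamine-CoA (5 uM). Two reads 30 minutes apart at 525/598 nm yielded each well's rate.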
gsp agonist: qHTS for Agonist of gsp, the Etiologic Mutation Responsible for Fibrous Dysplasia/McCune-Albright Syndrome: qHTS | AID 624287, 2012 | 340,000 compounds, 0.13% hits | gsp mutant cells, cAMP HTRF, 30 min; control for the full effect not named in the record | Potency, µM (top dose mostly 76.9 µM), for the others: at the highest dose activation (cAMP increase), actives largely listed as activators; active = well fitted activation curve with a large enough effect; inconclusive = small, poorly fitted or top-dose-only effect, or another doubt; inactive = no such curve, though single readings can be large or run the other way; cell line not stated here;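 further: phosphodiesterase inhibitor Ro 20-1724 added with compounds to block cAMP breakdown; potency means the concentration at half of the fitted maximal effect; nearly all actives have a fitted effect of over 60% in size; about a fifth of the inactives were tested at one dose only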
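Cells stably selected in G418 were plated at 2000/well, grown 16-24 hr, then given compounds in DMSO with the PDE inhibitor […] (300 uM solution added) for 30 min at 37C; cAMP was read by HTRF.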
* = called active by the depositor; ? = inconclusive; . = no result given; & = joins results of further samples; [ ] = another dose, or the depositor's remark.

SMILES | TRPML1 inh | Menin MLL FP FL | TRPV1 potentiator | gsp antag | ClpP mod | Sfp inh | gsp agonist
O=C(O)c1ccc(CNCc2ccc(Cl)cc2)cc1 | 25 | -5.3 | -5 | 5% | -2.5% | 22% | -5%
COC(=O)c1ccccc1OC(=O)c1cccnc1 | -10 | 1.2 | -1 | 8% | -0.7% | 12% | 34%
Cc1cc(=O)n(-c2ccccc2)n1C | 0 | 1.5 | . | 0% | -1.7% | 12%&6%&5% | .
Cc1cc(C)nc(N(C#N)CC(=O)N(c2ccccc2)C(C)C)n1 | -13 | -0.7 | -9 | -6%[15.4 µM] | -1.9% | 14% | 13%
CCC1(C)COC(c2ccc(OC)c(OC)c2)OC1 (configuration not stated) | 13 | . | . | 12% | 4.1% | . | -61%[inhibitor]
Cc1cccc(NC(=O)/C(=C\c2ccco2)NC(=O)c2cccs2)c1 | 7 | 6.0 | -4 | 7% | 0.5% | 56µM* | -12%
CC(O)CNCCOc1cccc(Oc2ccccc2)c1 (configuration not stated) | -3 | 1.8 | 4 | 17% | -0.1% | -2% | 2%[15.4 µM]
CCn1c(=O)cc(OCC(=O)NCCC(C)C)c2ccccc21 | 11 | -0.3 | -3 | -6% | -1.6% | 10% | 18%
COc1ccc(CNC(=O)O[C@H]2C[C@@H]3C(=O)N(c4ccccc4)C(=O)[C@@H]3[C@@H]3CN(S(=O)(=O)c4ccc(C)cc4)C[C@]23O)cc1OC | 10 | . | . | . | 1.6% | . | 18%
CC1CCCN(CCOCCOc2ccc(Cl)cc2Br)C1 (configuration not stated) | 50 | 3.7 | -10 | 18% | 1.1% | ? | -25%
O=C(NCc1ccccn1)c1cc2n(n1)C(C(F)(F)F)CC(c1ccco1)N2 (configuration not stated) | 5 | ? | -6 | -7% | -21% | 13µM* | 1%
Cc1cc(C)n2c(SC/C(O)=C(\C#N)c3nc4ccccc4[nH]3)nnc2n1 | -16 | ? | -4 | 0% | -9.4% | ? | -3%
CCCC(=O)Nc1c(-c2cccc(OC)c2)c(=O)c2ccccc2n1C | 5 | -1.2 | 3 | -10% | -8.5% | 8% | 15%
COCCCn1c(=NC(=O)c2ccccc2)c(C#N)cc2c(=O)n3cccc(C)c3nc21 | -2 | ? | 1 | -21% | -5.0% | -20% | 14%[15.4 µM]
c1nc(Nc2ccc(N3CCOCC3)cc2)c2ccsc2n1 | -2 | 0.4 | -1 | -11% | . | 11% | 2%[15.4 µM]
CCOC(=O)C1(C)NC(c2ccc(N(C)C)cc2)C2C(=O)N(CC)C(=O)C21 (configuration not stated) | 22 | 2.6 | -19 | -5% | -2.8% | 10% | ?
O=C(c1ccccc1)N1CCCC(c2nc3c(nnn3Cc3ccccc3)c(=O)[nH]2)C1 (configuration not stated) | 2 | -0.8 | 5 | 11% | -4.1% | -1% | 8%
COc1ccc(Cl)cc1NC(=O)CN(C)CC(=O)Nc1cccc(S(=O)(=O)N2CCCC2)c1 | 3 | . | -2 | -28% | 0.2% | . | -5%[15.4 µM]
O=C(NCCC1=CCCCC1)c1cc(-c2ccccn2)nc2ccccc12 | 26 | 2.9 | -6 | 5% | . | 16% | -10%[15.4 µM]
S=C(Nc1cccc(Cl)c1)N(CCCN1CCCC1)Cc1cccn1Cc1ccc(Cl)cc1 | 20 | 1.1 | 4 | 2% | . | 63µM* | 22%[15.4 µM]
O=C(Nc1ccc(F)cc1)Nc1sccc1-c1nc2ccccc2s1 | -10 | 14 | 13 | -10% | . | -13% | 25%[15.4 µM]
COc1ccc(/C=N/Nc2ncccc2[N+](=O)[O-])c(OC)c1 | -4 | 1.4 | 15 | -18% | 2.3% | 9% | -49%[inhibitor]
Cc1ccc(S(=O)(=O)NCc2ccccc2C)cc1 | . | -5.0 | -12 | 2% | -0.9% | -2% | 12%
Cc1noc(C)c1COc1ccc(C(=O)N2CCN(c3ccccn3)CC2)cc1 | -3 | . | 2 | 4% | -19% | . | 10%
O=C(COc1ccccc1F)NNC(=O)c1ccc(F)c(S(=O)(=O)N2CCOCC2)c1 | -7 | . | . | -4% | -2.1% | . | 8%[15.4 µM]
Cc1ccc(NC(=O)C2CCCN2C(=O)NCc2ccccc2)cc1 (configuration not stated) | 9 | -0.2 | -6 | 2% | 1.2% | 16% | -4%[15.4 µM]
N#Cc1c(NC(=O)COC(=O)c2nccnc2N)sc2c1CCCC2 | 5 | . | -1 | -2% | 19% | . | -13%[15.4 µM]
Cc1cc(C)n2nc(CC(=O)NCc3ccc(F)cc3)nc2n1 | -5 | -0.5 | 2 | 6% | 1.9% | -16% | 9%[15.4 µM]
CCN(CC)CCCNC(=O)C1c2cc(OC)c(OC)cc2C(=O)N(C)C1c1cccs1 (configuration not stated) | 19 | -1.1 | 20 | 10% | -14% | 18% | -1%
COCc1c(C(=O)N2CCN(c3ccccc3C)CC2)oc2ccccc12 | -13 | . | . | -4% | 0.6% | . | 1%
Brc1ccc(-c2nc(-c3ccncc3)no2)o1 | -1 | 1.4 | 10 | ? | -15% | 28% | 12%
Cn1cc(C(=O)C(=O)N2CCN(c3ccccc3)CC2)c2ccccc21 | 29 | 0.6 | 16 | 6% | . | 17% | -6%[15.4 µM]
COc1ccccc1CNC(=O)[C@@H]1CCCN1S(=O)(=O)c1ccc(C)cc1 | 7 | -2.0 | -5 | -2% | -4.0% | -3% | 3%
CN1CCN(Cc2nc(Cc3ccccc3)no2)CC1c1ccccc1 (configuration not stated) | 0 | 3.2 | -10 | -5% | . | 0% | 5%[15.4 µM]
CCN(CC(=O)Nc1c(F)cccc1F)C(=O)CCOc1ccccc1 | 5 | . | 12 | 6% | -3.5% | . | 10%[15.4 µM]
COCc1[nH][nH]c(=O)c1/C=N/N1CCOCC1 | -2 | -1.4 | 8 | 14% | 2.3% | -17% | -48%[inhibitor]
COc1cccc(C(=O)C2CCCN(Cc3c(C)n(C)n(-c4ccccc4)c3=O)C2)c1 (configuration not stated) | 2 | 0.4 | 14 | 2% | -1.2% | 6% | -23%
CCc1ccc(C(=O)COC(=O)[C@@H](NC(N)=O)[C@@H](C)CC)cc1 | 3 | -2.9 | 2 | -10% | . | 6% | 4%[15.4 µM]
CCc1cc2c(nc1CC)CCN(CC/C(C)=N/O[C@@H](C)c1cc(-c3c(C)cc(C)cc3C)no1)C2 | . | ? | 29 | . | . | ? | .
CCCCNC(=O)c1ccc2c(OCC)n(CCCC)nc2c1 | -4 | 5.5 | 8 | -1% | 3.9% | 12% | -13%
O=S(=O)(Nc1cccc(-c2cn3cccnc3n2)c1)c1ccccc1 | 22 | . | -2 | 7% | 36% | -7% | -5%
CC12CCC(=O)N1C(C(=O)OCC(=O)Nc1ccc(S(N)(=O)=O)cc1)CS2 (configuration not stated) | 9 | 9.7 | 12 | 0% | -7.6% | 5% | -11%
O=C(Cn1nc(-c2ccc(F)cc2)ccc1=O)Nc1ccc(C(=O)NC2CC2)cc1 | -1 | 1.7 | 1 | -5% | -14% | 2% | 4%
CC(=O)N1c2ccc(S(=O)(=O)N3CCC(C(=O)Nc4cc(C)cc(C)c4)CC3)cc2CC1C (configuration not stated) | 16 | . | -18 | ? | 1.0% | 4% | 28%
O=C(Nc1nc2cc3c(cc2s1)OCCO3)c1cccs1 | . | 3.3 | -17 | -19% | 152% | 5% | -1%
CN(CC1CCCO1)S(=O)(=O)c1ccc(C(=O)Nc2ccc(S(N)(=O)=O)cc2)cc1 (configuration not stated) | 28 | . | -12 | 8% | 0.2% | 6% | ?
COc1ccc(OCc2cc(C(=O)N(C)CCC3CCOCC3)no2)c(Cl)c1 | 6 | . | -20 | -8% | 0.9% | 6% | 1%
CCC1(c2ccccc2)NC(=O)N(CC(=O)Nc2cc(C(F)(F)F)ccc2N2CCCC2)C1=O (configuration not stated) | 15 | . | 8 | -11% | 2.2% | . | -18%
O=C(CN1CCN(Cc2ccccc2)CC1)NNC(=O)c1ccccc1 | 36 | . | 2 | 14% | 1.5% | . | ?
C[C@H](NC(=O)C1(c2ccccc2)CCN(C(=O)OC(C)(C)C)CC1)C(=O)N[C@@H](C(=O)O)c1ccccc1 | . | -2.6 | -1 | 0% | -1.6% | 28% | .
O=c1cc(CSc2nnnn2-c2ccccc2)[nH]c2[nH]n(-c3ccccc3)c(=O)c12 | -11 | 5.1 | -13 | -1% | -0.3% | -3% | -31%[inhibitor]
CCCCCSc1nc2c(cnn2-c2ccccc2)c(=O)[nH]1 | -8 | 4.4 | -1 | 8% | 2.3% | -5% | -3%
COc1ccc(C2=NN(c3ccc(C=O)cc3)C(c3ccccc3)C2)cc1 (configuration not stated) | 39 | ? | -4 | -15% | . | -27% | -14%
Cc1csc(NC(=O)COc2ccc3c(C)cc(=O)oc3c2)n1 | -3 | -0.1 | 5 | 8% | -28% | 9% | -14%
COCCOC(=O)C1=C(C)NC(=S)NC1/C=C/c1ccccc1 (configuration not stated) | 17 | 6.7 | 7 | 4% | 2.0% | ? | 3%
COc1ccc(OC(=O)c2ccc(OC)c(S(=O)(=O)N3CCOCC3)c2)cc1 | -10 | . | -1 | -3% | 0.4% | 7% | -13%
O=C(COC(=O)/C=C/c1cccs1)NC1CC1 | 4 | -0.5 | 5 | 3% | . | 23% | 19%
CSc1nc(NC(C)=O)nc(C)c1Br | 12 | 0.3 | 21 | 6% | -2.4% | -4% | -11%
CC(=O)NCCc1nc2ccccc2n1CCOc1ccccc1C | . | 0.2 | -31 | 12% | -2.9% | 7% | ?
O=C(Nc1nc2c(s1)CCCC2)c1ccc(Br)o1 | -9 | -0.8 | -9 | -3% | -0.4% | 9% | 27%
